# CDC25B-CDK2 inh – human CDC25B-CDK2/CyclinA binding inhibition; AID 1259370; HTRF CDC25B-CDK2/CyclinA binding, anti-His/anti-Flag; stronger effect = higher value; z-score (concentration not given with the values); 94,000 compounds, 0.72% hits; P30305+P24941;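 also: score is relative to mean and SD of negative controls; strong numbers were not always called active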
# HIV TAR-Tat – HIV-1 TAR-Tat binding disruption | HIV-1 TAR RNA, Tat peptide displacement FRET; stronger effect = higher value | z-score (no concentration beside the values) | 100,000 compounds, 0.6% hits;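 also: score is relative to mean and SD of negative controls; some compounds called inactive have numbers as strong as hits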
# * marks the source's active call; other numbers are inactive results; x = not tested or not shown.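 The calls were made as follows: active = z-score from 3 up in half or more of its runs; inactive = the rest.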
mol | CDC25B-CDK2 inh | HIV TAR-Tat
Cc1sc2c3ccsc3ccc2[n+]1C | -2.91 | x
CCOC(=O)c1c(C)n(C)c2ccc(OCC(O)CNC3CCCCC3C)cc12 (configuration not stated) | -0.66 | 1.88
Cc1cccc2c1NC(=O)C2(O)CC(=O)c1ccco1 (configuration not stated) | x | 0.1
CC(=O)N1CCc2cc(S(=O)(=O)CCC(=O)Nc3c(C)n(C)n(-c4ccccc4)c3=O)ccc21 | x | 2.76
CC(C)c1ccc(-c2c(NC3CCCCC3C)c(=O)c2=O)cc1 (configuration not stated) | x | 1.8
CCOc1ccc2nc(-n3nc(C)c4c3NC(=O)CC4c3c(C)sc4ccccc34)sc2c1 (configuration not stated) | x | 0.33
O=c1oc2ccccc2c2oc(NCc3ccccc3)c(-c3ccncc3)c12 | x | 0.87
Cc1ccc2oc(C(=O)Nc3nc(-c4cccs4)ns3)c(C)c2c1 | -2.82 | 1.31
O=S(=O)(c1ccc(Sc2ccc(S(=O)(=O)N3CCCC3)cc2)cc1)N1CCCC1 | -0.13 | -2.3
CN(C)c1ncnc2c1[nH]c1ccc(F)cc12 | -2 | x
CCn1nc(C)c(CNC(=O)Nc2cc(Cl)c(OC)cc2OC)c1C | x | 0.71
CCCCc1c(O)nc(SCCN(C)C)n(-c2ccccc2)c1=O | -0.31 | 1.37

# A section of the results above, as a working copy:
mol | CDC25B-CDK2 inh | HIV TAR-Tat
CCn1nc(C)c(CNC(=O)Nc2cc(Cl)c(OC)cc2OC)c1C | x | 0.71
CCCCc1c(O)nc(SCCN(C)C)n(-c2ccccc2)c1=O | -0.31 | 1.37

# Continuation:
mol | CDC25B-CDK2 inh | HIV TAR-Tat
CC(C)(C)C1CCc2c(sc3nnn(CC(=O)Nc4ccccc4)c(=O)c23)C1 (configuration not stated) | -1.3 | 1.41
O=S(=O)(Nc1ccc(Br)c2cccnc12)c1cccc2cccnc12 | -0.87 | x
Cc1cc(NC(=O)/C(C#N)=C/c2cc(Br)cs2)no1 | -0.84 | x
CCOc1ccc(-n2c(C)nnc2SCc2nc(-c3ccc(Cl)cc3)no2)cc1 | 0.56 | 1.75
Cc1ccc2ncnc(Nc3ccccc3)c2c1 | -1.98 | x
CCC(=O)N1c2ccc(S(=O)(=O)N3CCCCC3)cc2CC1C (configuration not stated) | x | -0.11
CCOC(=O)c1cc(S(=O)(=O)N2CCCc3ccccc32)[nH]n1 | x | 1.73
CC(C)CCSC(=O)Nc1ccccc1 | 0.99 | x
O=C(Nc1c(C(=O)N2CCOCC2)oc2ccccc12)c1ccco1 | x | 1.95
CC(C)C(=O)Nc1nc(-c2cccs2)ns1 | -0.88 | 1.15
Cc1sc2nc3c(C(=O)N4CCN(c5ccccc5)CC4)cccn3c(=O)c2c1C | -1.34 | 1.4
CCc1c(C)nc2ncnn2c1Nc1ccc(F)c(Cl)c1 | x | 1.64
COc1c(Cl)cc([N+](=O)[O-])c(OC)c1C(N)=O | -1.95 | x
CN(NC(=S)Nc1cc(Cl)ccc1Cl)c1ccc(C(F)(F)F)cc1[N+](=O)[O-] | -1 | x
Cc1nn(CCCC(=O)N2CCN(C)CC2)c(=O)c2cc3occc3n12 | -2.28 | 1.21
Cc1ccc(NS(=O)(=O)c2cc(-c3onc(C)c3C)ccc2C)cc1C | x | 1.43
COc1ccc(NC(=O)c2sc(=S)n3c2[nH]c(=O)c2sccc23)cc1OC | x | 9.21*
Cc1cc(SCC(=O)c2ccc(Br)cc2)ncn1 | -6.99 | -0.33
Cc1c(NC(=O)Nc2ccccc2Br)c(=O)n(-c2ccccc2)n1C | 0.73 | 0.5
C=CCOc1ccc(C(=O)Nc2nc(-c3ccc(OC)cc3)ns2)cc1 | 5.08 | 0.18
O=C(NCC1CCCO1)Nc1ccccc1-c1cc2ccccc2[nH]1 (configuration not stated) | x | 0.88
CC1=C(C(=O)O)C2(CCC(C)CC2)OC1=O (configuration not stated) | x | 2.13
COc1ccc(-c2nc(=S)c3c([nH]2)Oc2c(O)cccc2C3)cc1OC | 2.04 | -1.71
O=C(c1cc(S(=O)(=O)N2CCCCC2)c[nH]1)N1CCN(C2CCCCC2)CC1 | x | 2.37
O=C(C1CCCN(c2nnc(N3CCCCC3=O)s2)C1)N1CCN(c2ccc(F)cc2)CC1 (configuration not stated) | x | 1.57
CCc1nc(OCc2ccc3c(c2)OCO3)c2oc3ccccc3c2n1 | x | 2.23
Cc1c(C)c(C)c(CSCc2n[nH]c(=S)n2-c2ccc(F)cc2)c(C)c1C | -1.72 | x
CC(C)CC(NC(=O)C1CCC(C)CC1)C(=O)Nc1ccccn1 (configuration not stated) | -0.85 | -1.08
CCOC(=O)CSCc1nc2c(c(=O)[nH]1)C1(CCCC1)Cc1ccccc1-2 | -1.22 | x
O=C1CCc2cc(S(=O)(=O)NC(Cc3ccccc3)C(=O)NC3CCCC3)ccc2N1 (configuration not stated) | -0.77 | x
OCCNC(=S)Nc1ccc2nc3c4ccccc4c4ccccc4c3nc2c1 | 21.5* | x
CCCCCOC(=O)C1=C(C)Nc2ncnn2C1c1cc(Br)ccc1OC (configuration not stated) | -1.62 | 2.08
CN(C)CCNc1ncnc2c1c(-c1ccccc1)cn2-c1ccc(F)cc1 | -0.45 | -0.46
O=C(Cn1ncn2c(cc3cc(F)ccc32)c1=O)N1CCN(c2ccccc2)CC1 | -0.07 | -0.57
COc1ccc(S(=O)(=O)Nc2nc3ccc(S(=O)(=O)N4CCCC4)cc3s2)cc1 | x | 1.06
Cc1occc1-c1nnc(SC(C)C(=O)NCCC(C)C)o1 (configuration not stated) | -0.31 | 0.28
CN=C(N)NCCCC(N)C(=O)O (configuration not stated) | x | 1.33
OC(Cc1cccnc1)(c1ccccc1)c1ccc(Cl)cc1 (configuration not stated) | -1.66 | x
O=C(Nc1nnc(-c2ccc(Cl)c(Cl)c2)s1)Nc1ccccc1F | -0.21 | x
CC1CCN(C(=O)c2nn(-c3ccc(Cl)cc3)c(=O)n(C)c2=O)CC1 | x | 0.99
Cc1cccc(N2CCN(c3c(C)c(C)nc4ncnn34)CC2)c1C | x | 1.04
N#Cc1c(-c2ccc(Cl)cc2)nc(SCC(=O)OC2CCCC2)[nH]c1=O | 0.79 | -2.23
CCN(S(=O)(=O)c1cc(Cl)sc1Cl)S(=O)(=O)c1cc(Cl)sc1Cl | -1.69 | x
C[N+]1(CCCCC[N+]2(C)CCCC2)CCCC1 | -0.56 | 1.57
O=S(=O)(c1cccc(Cl)c1)N(Cc1cc(CN2CCOCC2)cs1)c1ccc(F)cc1 | x | 0.07
Cc1cccc(N(C)S(=O)(=O)c2cccc3cccnc23)c1 | 0.44 | x
CCOC(=O)Cn1c(C2CC(=O)N(c3ccc(F)cc3)C2)nc2ccccc21 (configuration not stated) | -2.26 | 0.03
CCOC(=O)C1CCN(C(=O)CCc2nnc3ccc(N4CCOCC4)nn23)CC1 | x | 1.12

# In a second layout: results already given.
# Values run as follows: CDC25B-CDK2 inh, HIV TAR-Tat
- CCOC(=O)c1cc(S(=O)(=O)N2CCCc3ccccc32)[nH]n1
 : x, 1.73
- CC(C)CCSC(=O)Nc1ccccc1
 : 0.99, x
- O=C(Nc1c(C(=O)N2CCOCC2)oc2ccccc12)c1ccco1
 : x, 1.95

# Further entries follow.
mol | CDC25B-CDK2 inh | HIV TAR-Tat
CCCn1c2ccccc2c2cnn(CC(=O)N3CC(C)CC(C)C3)c(=O)c21 (configuration not stated) | x | -2.37
CC(C)n1nc(CC(=O)O)c2ccccc2c1=O | -0.55 | 1.06
Cc1ccc(CNC(=O)c2c(O)nc3c(C)cccn3c2=O)cc1 | -1.37 | -0.21
COC(=O)c1cc2ccsc2n1Cc1nc(-c2ccc(Cl)cc2)oc1C | -0.21 | 0.44
Cc1cc(=O)n2[nH]c(C3CC3)nc2n1 | x | -0.01
CCCn1c2ccccc2c2nnc(SC(CC)C(=O)Nc3ccc(Cl)cn3)nc21 (configuration not stated) | -5.07 | x
Cc1cc2nc(CSc3ccc(N)cc3)c(=O)[nH]c2cc1C | x | 18.9*
O=C(c1cnn(-c2ccc(F)cc2F)c1C1CCNCC1)N1CCN(c2ccc(F)cc2)CC1 | x | -0.29
CSc1ncc(Cl)c(C(=O)N2CCN(C(c3ccccc3)c3ccccc3)CC2)n1 | -1.25 | 0.95
COCCNc1ncnc2c1c(-c1ccccc1)cn2-c1cccc(C(F)(F)F)c1 | -1.62 | x
CN(C)C(=O)CCc1nc(-c2ccc(Cl)cc2)no1 | -1.37 | 0.84
CC1=NN(C(=O)c2csc3c2CCCC3)C(O)(C(F)(F)F)C1 (configuration not stated) | -2.06 | x
Cc1cc(-c2ccccc2)c2c(n1)sc1c(=O)[nH]cnc12 | 0.41 | 1.32
O=C1Nc2cc(C(=O)N3CCc4ccccc4C3)ccc2N2CCCCC12 (configuration not stated) | x | -0.64
Cc1cc2c(cc1S(=O)(=O)N1CCCc3ccccc31)OCCN2C | x | 1.56
O=C1c2oc3ccc(F)cc3c(=O)c2C(c2cccc(Cl)c2)N1CCCN1CCOCC1 (configuration not stated) | x | 0.92
CCOC(=O)N1CCC(Nc2c(N3CCN(c4ccc(OC)cc4)CC3)c(=O)c2=O)CC1 | -0.12 | 0.2
O=S(=O)(c1ccc(-c2cnc(C3CC3)o2)cc1)N1CCc2ccccc2C1 | x | 1.9
Cc1nc(/C(N)=N/OC(=O)c2ccccc2Cl)c(C(F)(F)F)o1 | -1.71 | x
CC1=C(c2ccc(C)c(C)c2)S(=O)(=O)NC1=NCCCN1CCN(C2CCCCC2)CC1 | -1.74 | 0.61
CC1CC(C)CN(C(=O)CCc2nnc3ccc(N4CCOCC4)nn23)C1 (configuration not stated) | x | -0.34
O=C(Nc1cccc(Cl)c1)c1cnc2n(c1=O)CCS2 | -0.09 | x
COc1ccc(Nc2c(-c3ccc4c(c3)CCCC4)c(=O)c2=O)cc1OC | x | 2.05
Cc1ccc(Cl)cc1-n1ncc2c(NCCC(C)C)ncnc21 | x | 1.5
COCc1c(Br)c(C)nc2sc3c(=O)n(-c4ccc(F)cc4)nnc3c12 | -0.51 | 0.43
C=CCN(C(=O)Cn1c(C(=O)OC)cc2sc(C)cc21)c1ccccc1 | -1.52 | 0.07
N=C1C(c2nc3ccccc3s2)=C(O)CN1C1CCCCC1 | -0.25 | 1.7
COc1ccc(-n2nnnc2C2CCN(S(=O)(=O)c3cccc(Br)c3)CC2)cc1 | -1.5 | 0.51
CSc1cccc(NC(=S)NCCCO)c1 | -1.63 | x
COc1ccc(OC)c(Nc2ncnc3onc(-c4ccc(Cl)cc4)c23)c1 | 0.08 | 1.52
CCOC(=O)C1CCN(C(=O)c2cc(C(C)(C)C)nn2Cc2ccccc2)CC1 | -1.6 | x
COc1ccc(-c2nc(SCCOc3ccc(C)cc3OC)n3[nH]c(=O)cc3n2)cc1 | x | 1.26
O=C(c1ccc2c(c1)N(CC(=O)N1CCc3ccccc31)C(=O)C1CCCCN21)N1CCCC1 (configuration not stated) | x | 0.57
O=C(NCCCN1CCCCC1)c1cnc(N2CCOCC2)nc1 | x | 1.85
O=C1C=C(Nc2ccccc2)CC(c2ccc(Cl)cc2)C1 (configuration not stated) | -2.03 | x
CN(C)/C=N/c1ncc(C(F)(F)F)cc1Cl | -0.21 | x
Cc1cccn2c(=O)c(C(=O)NCc3ccccn3)c(O)nc12 | -1.19 | 0.11
CCN(CC)S(=O)(=O)c1ccc2c(c1)c(=O)c(C(=O)NC1CCCCCC1)cn2C | -1.27 | x
CCn1c(SC)nc2c([nH]c3ccccc32)c1=O | x | 2.28
CC(C)CC(NS(=O)(=O)c1ccc2c(c1)oc(=O)n2C)C(=O)Nc1ccccn1 (configuration not stated) | 0.61 | x
COc1cc2ncc(S(=O)(=O)c3ccccc3)c(NCc3ccccc3)c2cc1OC | 2.23 | 0.54
CC1CC(=O)Nc2cc(S(=O)(=O)Nc3ccc4c(c3)OCCO4)ccc2S1 (configuration not stated) | x | 1.41
CCc1ccc(/C(C#N)=C/c2ccc(OC)cc2)cc1 | 0.81 | x
O=c1c(N2CCC(Cc3ccccc3)CC2)csc2ccc(F)cc12 | x | 1.36
Cc1c(C(=O)N2CCC(C)CC2)c(S(=O)(=O)Nc2ccc3c(c2)OCCO3)c(C)n1C | x | 2.44
Cc1ccc(OCCCc2c(C)n[nH]c2C)cc1 | -1.16 | x
Cc1cccc(CSc2nc(=O)n(C3CCCC3)c3c2CCC3)c1 | -0.71 | 0.64
OCc1cnc(SC2CCCC2)n1Cc1ccc(F)cc1 | x | 0.67
Cn1nc(C(=O)N2CCC(N3CCCCC3)CC2)c2c1-c1ccsc1CC2 | x | 0.02
COc1ccc(OC)c(C(=O)c2oc3ccc(N)cc3c2C)c1 | x | -0.93
O=C(Cn1c(=O)[nH]c2ccsc2c1=O)N1CCN(c2ccccc2)CC1 | -0.31 | x
CCn1c(C(=O)N2CCCC(C(=O)N3CCN(c4cc(C)ccc4C)CC3)C2)cc2sccc21 (configuration not stated) | -1.86 | x
NS(=O)(=O)c1ccc(-c2ccc(/C=C3/SC(=S)N(CCC(=O)O)C3=O)o2)cc1 | -2.73 | x
CCc1ccc2occ(CC(=O)Nc3sc4c(c3C(=O)NC)CCCC4)c2c1 | -4.25 | 3.51
Cc1cc2c(cc1Br)NC(=O)C21C(C#N)=C(N)Oc2n[nH]c(C)c21 (configuration not stated) | -1.34 | 0.71
Cc1ccc2n1CCN(C(=O)Nc1cc(F)ccc1F)C2C(C)C (configuration not stated) | x | 0.58
CCOC(=O)CSc1nc(-c2ccc(F)cc2)cc(C(F)(F)F)c1C#N | -3.11 | -2.2
O=C(CC1(O)C(=O)Nc2ccccc21)c1ccccc1 (configuration not stated) | -0.09 | 1.7
COc1ccc(-c2nnc(Nc3cccc(O)c3)c3ccccc23)cc1 | -0.86 | 1.51

# Screening data: PubChem, Center for Chemical Genomics, University of Michigan
